High-throughput results from PubChem BioAssay.
B2AR ag: beta2AR agonists driving receptor internalization, primary screen, cell-based, FAP fluorogen, flow cytometry; Beta-2 adrenergic receptor (Homo sapiens), P07550; Am2.2-beta2AR cells; reference of the scale not given here; response, % (no concentration beside the values); 0.43% of 340,000 active;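 active means response above a set limit, near 3 SD of response in nonfluorescent compounds, cut at about 42% in these data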;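 further: stock transfer was 100 nL into about 11 µL; a reference agonist was the positive control; negative values mostly stem from fluorescent compounds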
Target sequence (P07550 whole entry, looked up): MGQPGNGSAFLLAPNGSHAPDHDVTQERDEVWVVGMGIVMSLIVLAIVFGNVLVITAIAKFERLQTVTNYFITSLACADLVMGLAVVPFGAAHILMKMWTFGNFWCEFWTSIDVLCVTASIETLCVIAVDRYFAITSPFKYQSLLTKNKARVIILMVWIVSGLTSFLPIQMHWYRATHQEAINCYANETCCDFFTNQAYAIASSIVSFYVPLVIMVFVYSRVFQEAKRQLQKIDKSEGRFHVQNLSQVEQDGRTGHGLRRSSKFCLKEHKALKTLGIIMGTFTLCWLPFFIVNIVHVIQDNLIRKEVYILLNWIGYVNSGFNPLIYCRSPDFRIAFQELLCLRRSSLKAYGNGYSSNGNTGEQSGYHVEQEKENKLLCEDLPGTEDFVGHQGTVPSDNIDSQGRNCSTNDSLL
Numbers without * were called inactive. Only part of the results is shown; the hit share may differ from the screen's.

SMILES	B2AR ag
O=C(O)c1cccc2c1C(=O)c1cc([N+](=O)[O-])ccc1-2	5.1
Cc1ncc(CO)c(/C=N/NC(=O)c2ccoc2C)c1O	6.8
CC1Cc2cc(-c3csc(NC(=O)CCl)n3)ccc2N1C(=O)C1CC1 (stereo not given)	-4.2
CCOC(=O)Nc1cccc2c1-c1ccc([N+](=O)[O-])cc1C2=O	-3.0
COC(=O)[C@H](NCc1ccc(OC)c(B(O)O)c1)C(C)C	-8.8
CN(C)c1ccc(C=NNC(=O)c2cccc3ccccc23)c(Cl)c1	9.7
O=C(O)C1C=Cc2ccccc2N1C(=O)c1ccccc1 (stereo not given) (tested in a mixture with another compound)	-1.1
C=CCN=c1scc(-c2ccc3c(c2)NC(=O)CO3)n1/N=C(\C)c1ccccn1	-1.7
CCOC(=O)CCC(NC(=O)c1ccc(CNc2nc3cc(C(F)(F)F)ccc3nc2C(=O)OCC)cc1)C(=O)OCC (stereo not given)	28.1
Nc1ccc2c(c1)Cc1cc(N)c(Br)cc1-2	-1.6
Cc1ccc(NC(=O)c2ncn(CCCN[C@H](C)c3cccc4ccccc34)n2)cc1C	29.3
Cc1cn(C2CC(O)C(CO)O2)c(=O)n(CCCc2ccccc2)c1=O (stereo not given)	-14.0
O=C(O)c1cc(N2CCCC2)ccn1	-1.6
O=C(O)CC1(CC(=O)Nc2nccs2)CCCCC1	-1.8
CC(NNC(=S)N1CCN(c2ccccn2)CC1)c1nccc2ccccc12 (stereo not given)	5.9
CC(C)(C)OC(=O)N(Cc1ccccc1)Cc1ccc(OCc2cccc(NC(=O)c3ccccc3)c2)cc1	3.4
Cc1cccc(C(=O)NCN2CCN(c3ccccc3C#N)CC2)c1	-8.2
O=S(=O)(c1ccc(Br)cc1F)N1CCC(O)CC1	2.0
COc1ccccc1-c1cccc([C@@H]2C[C@H]3[C@H](CON3C)CN2C)c1	-2.7
CC(=NNC(=S)N1CCN(c2ccccn2)CC1)c1ccccn1	-4.0
O=C(Cc1cccc(NC(=O)C2CCN(C(=O)C3CCC3)CC2)c1)Nc1cccc(C(=O)N2CCCCC2)c1	-15.0
O=C(Nc1ccc(S(=O)(=O)N2CCCC2)cc1)c1ccc(F)cc1	2.8
COc1ccc(C=NNC(=O)CCCC(=O)NN=Cc2ccc(OC)c(O)c2)cc1O	9.5
Clc1ccc(C2Nc3cccc4cccc(c34)N2)c(Cl)c1	6.0
CN(C)C(=S)N=c1ssc(=S)n1Cc1ccccc1	-19.7

3 structures from above, sorted by count of non-hydrogen atoms, largest number first:
SMILES	B2AR ag
O=C(Cc1cccc(NC(=O)C2CCN(C(=O)C3CCC3)CC2)c1)Nc1cccc(C(=O)N2CCCCC2)c1	-15.0
O=C(Nc1ccc(S(=O)(=O)N2CCCC2)cc1)c1ccc(F)cc1	2.8
CN(C)C(=S)N=c1ssc(=S)n1Cc1ccccc1	-19.7

The results go on:
SMILES	B2AR ag
Nc1cccc(Oc2ccc3c(c2)C(=O)N(CCO)C3=O)c1	3.8
O=C(OCc1ccccc1)N1CCC2CC1c1cc(N3CCOCC3)ccc12 (stereo not given)	-7.7
O=C(N/N=C/c1ccc(F)cc1)c1ccc(-n2cnnn2)cc1	-3.6
CCCCCCCCNS(=O)(=O)CCNCc1ccc(OC)cc1	-3.6
COc1ccc(OC)c(S(=O)(=O)N2CCCC(C(=O)NC3CC3)C2)c1 (stereo not given)	-2.8
O=C1OCC(O)=C1Cc1ccccc1	-5.4
CN(C)c1ncnc2c1C(c1ccccc1)C(C)(C)O2 (stereo not given)	-12.1
Cc1ccccc1C(=O)N1CCC2CC1c1cc(-c3ccc(F)cc3)ccc12 (stereo not given)	-0.9
O=c1ccn([C@@H]2O[C@H](CNS(=O)(=O)c3csc(-c4ccno4)c3)[C@@H](O)[C@H]2O)c(=O)[nH]1	-2.2
C=CCn1cnc2c(c1=O)c1nc3ccccc3nc1n2/N=C/c1cccc(OC)c1	-6.1
CC(=O)OCC1(O)CC23CCC4c5ccoc5CCC4(C)C2CCC1C3 (stereo not given)	3.7
ON=C1c2ccccc2-c2ccc(O)cc21	16.7
O=C(CC(O)c1ccccc1)Nc1ccccn1 (stereo not given)	-6.0
COc1ccc(S(=O)(=O)Nc2cccc3c2O[C@H](CN(C)C(=O)NC2CCCCC2)[C@@H](C)CN([C@H](C)CO)C3=O)cc1	-4.0
CC(C)(C)CC(C)(C)N=C1Nc2ccccc2NC12C[C@H]1CCC(=O)N3CC[C@@H](C2)[C@@H]13 (stereo not given in full)	4.4
O=C(Nc1ccc(S(=O)(=O)N2CCOCC2)cc1)c1ccc(Cl)c([N+](=O)[O-])c1	18.7
CC(=NNC(=S)SCc1ccccc1)c1ccccn1	3.4
CCCCCC1C(=O)CCC1CC(=O)OC (stereo not given)	3.1
COc1ccc(C2c3cc4c(cc3OC(NNC(N)=O)C2C)OCO4)cc1 (stereo not given)	-2.5
O=C(NN=Cc1cc(Cl)ccc1[N+](=O)[O-])c1cccc2ccccc12	-0.8
CC(C)C[C@H]1CNC(=S)N1CC1CCN(CC2CCCC2)CC1	-2.5
CC(=O)N1C[C@H]2CON(C)[C@H]2C[C@H]1c1ccccc1Br	6.3
CCN(CC)c1nc(NNC(=O)c2ccccc2)nc(N(CC)CC)n1	1.5
O=c1[nH]c(=O)n(CCCc2ccccc2)cc1-c1ccccc1	-1.0
COc1ccc(-n2nc(C(=O)N3CCN(c4ccc(F)cc4)CC3)c3ccccc3c2=O)c(OC)c1	-8.1

Some of the entries above in another layout:
ON=C1c2ccccc2-c2ccc(O)cc21
  B2AR ag: 16.7
O=C(CC(O)c1ccccc1)Nc1ccccn1 (stereo not given)
  B2AR ag: -6.0
COc1ccc(S(=O)(=O)Nc2cccc3c2O[C@H](CN(C)C(=O)NC2CCCCC2)[C@@H](C)CN([C@H](C)CO)C3=O)cc1
  B2AR ag: -4.0
CC(C)(C)CC(C)(C)N=C1Nc2ccccc2NC12C[C@H]1CCC(=O)N3CC[C@@H](C2)[C@@H]13 (stereo not given in full)
  B2AR ag: 4.4

Sorted by value in B2AR ag (largest number first): three of the compounds above.
| compound | B2AR ag |
| --- | --- |
| O=C(O)CC1(CC(=O)Nc2nccs2)CCCCC1 | -1.8 |
| CC(C)C[C@H]1CNC(=S)N1CC1CCN(CC2CCCC2)CC1 | -2.5 |
| COc1ccc(S(=O)(=O)Nc2cccc3c2O[C@H](CN(C)C(=O)NC2CCCCC2)[C@@H](C)CN([C@H](C)CO)C3=O)cc1 | -4.0 |

Next part:
SMILES	B2AR ag
CON=C(C(=O)NC1C(=O)N2C(C(=O)O)=C(CSc3nc(=O)c(=O)[nH]n3C)CSC12)c1csc(N)n1 (stereo not given)	1.9
CCc1nc(N)nc(N)c1-c1ccc(N(C)Cc2ccccc2)c([N+](=O)[O-])c1	8.0
CSc1nc(N)nc2c1ncn2C1OC(CO)CC1O (stereo not given)	-0.1
CCCCSc1nc2c([nH]1)c(=S)n(C)c(=O)n2C	-5.2
O=C1CCn2c1c(O)c1ccccc1c2=O	10.4
Cc1ccc(C(=O)OCC(=O)Nc2ccc(F)c(Cl)c2)o1	13.7
Cc1ccc(NC(=O)c2ncn(CCCNCc3ccccn3)n2)cc1C	2.9
Nc1c(Cl)cc(S(N)(=O)=O)cc1S(N)(=O)=O	-6.3
COCCn1c(CN2CCN(C)CC2)nc2c1c(=O)n(C)c(=O)n2C	-5.9
COc1ccc(B(O)O)c(CN2CCN(C(=O)OC(C)(C)C)CC2)c1	0.6
C=CCCC1CN(Cc2ccco2)S(=O)(=O)c2c(F)cccc2O1 (stereo not given)	5.6
CCN(c1ccccc1)S(=O)(=O)c1cc(C(=O)NCC(c2ccc(OC)cc2)N(C)C)ccc1C (stereo not given)	13.9
COC1OC(O)C(NC(=O)C(F)(F)F)CC1O (stereo not given)	-10.9
O=C(Nc1csnn1)OCc1ccccc1	-8.5
COc1cc2c(c(OC)c1OC)-c1ccc(SC)c(=O)cc1C(NC(=O)c1ccccc1)CC2 (stereo not given)	18.8
COC(=O)c1ccc(CNC(=O)Cn2cc(C)c(=O)[nH]c2=O)cc1	1.2
COc1ccccc1NC(=O)c1ccc(NC(=O)C2CC2)cc1	-0.1
COc1cccc(-c2nc(-c3ccc(NC(=O)Cc4ccccc4OC)cc3)no2)c1	10.3
CN1CCN(c2ccc3c(c2)C2CC3CCN2C(=O)OCc2ccccc2)CC1 (stereo not given)	0.6
O=C1NC2c3c(Cl)sc(Cl)c3C(=O)C2O1 (stereo not given)	30.6
c1ccc(C(=NNc2nc3ccccc3s2)c2ccccn2)cc1	-365.2
COc1cc(NC(=O)c2cc(OC)c(OC)c(OC)c2)c2ncccc2c1	3.8
CCOc1ccccc1C=NNC(=O)c1cccc2ccccc12	-5.4
Cn1cc(Cc2ccccc2)c(=O)c(Cc2ccccc2)c1	-1.0
C[C@H]1NC(=O)[C@]2(C)[C@@H](c3ccccc3)[C@H]3COc4ccccc4[C@H]3N2C1=O	4.7
The list goes on:
SMILES	B2AR ag
Cc1cn(C2CC(O)C(CO)O2)c(=O)n(Cc2ccccc2)c1=O (stereo not given)	4.5
CCc1c(C)nc2[nH]ncn2c1=O	-4.8
NC(=O)c1ncn([C@@H]2O[C@H](CNCc3cc(Cl)ccc3OCc3ccc(Cl)cc3)[C@@H](O)[C@H]2O)n1	11.7
O=C(CCNC(=O)c1ccccc1)NCCCc1ccccc1	0.4
CN(C)c1ccc(C=c2c3ccccc3n3c2cc(-c2ccccc2)[n+]3C)cc1	-587.8
OCC1OC(n2cnc3c(/C=C(\O)c4ccccc4)ncnc32)C(O)C1O (stereo not given)	-7.8
O=C(N1CCc2cc(S(=O)(=O)NC[C@H]3O[C@@H](n4ccc(=O)[nH]c4=O)[C@H](O)[C@@H]3O)ccc2C1)C(F)(F)F	-1.9
C#CCOCCOCCOCCNc1nc(N2CCN(C(=O)[C@H](CO)n3cc([C@@H](N)C(C)C)nn3)CC2)nc(N2CCN(C(=O)[C@H](CO)n3cc([C@@H](N)C(C)C)nn3)CC2)n1	-0.9
CC(C)(C)OC(=O)N(Cc1ccccc1)Cc1cccc(OCc2cccc(NC(=O)C3CC3)c2)c1	1.2
COc1cc(C2C3=C(COC3=O)Oc3cc4c(cc32)OCO4)ccc1O (stereo not given)	6.7
c1cnc2ccc3c(c2c1)COCO3	-22.2
COC1OC2COC(c3ccccc3)OC2C(O)C1NC(=O)c1ccccc1 (stereo not given)	-10.8
CN1OC[C@@H]2CN(C(=O)CCc3ccccc3)[C@H](c3cccc(-c4ccc(C#N)cc4)c3)C[C@@H]21	-1.0
COc1ccccc1N1CCN(CCCN2CC(=O)N3CCCCC3C2=O)CC1 (stereo not given)	19.5
CCN1C/C(=C\c2cc(OC)c(OC)c(OC)c2)C2=NN(c3ccccc3)C(c3cc(OC)c(OC)c(OC)c3)C2C1 (stereo not given)	-2.0
COc1ccccc1NC(=O)CN1CCN(c2ccc(F)cc2)CC1	6.0
CC(C)c1ccc(/C=c2\sc3n(c2=O)C(N)=C(C#N)C(c2ccc(C(C)C)cc2)C=3C(N)=O)cc1 (stereo not given)	12.0
CC(NC(=O)C(Cc1ccccc1)=NO)c1ccccc1 (stereo not given)	-4.5
CC(=O)NC1C(=O)N(CCc2ccccc2)c2ccc(Br)cc21 (stereo not given)	3.5
O=C1C(=NO)CCCc2ccccc21	-10.2
N#Cc1c(N2CCN(c3ccc([N+](=O)[O-])cc3)CC2)[n+](=O)c2ccc(Cl)cc2n1[O-]	5.3
Cc1ccc(NC(=O)Cn2c(=O)ccn(Cc3ccccc3)c2=O)cc1S(=O)(=O)N1CCOCC1	4.4
Nc1n[nH]c(=S)n1/N=C1/C(=O)Nc2ccccc21	4.6
COc1ccc(C2NCCCC2c2ccccc2)cc1 (stereo not given)	-1.9
CN1OC[C@@H]2CN(C(=O)C(C)(C)C)[C@H](c3cccc(Br)c3)C[C@@H]21	-3.9
Other structures.
SMILES	B2AR ag
N#CC1(Nc2ccc(S(N)(=O)=O)cc2)CCCC1	1.6
O=C(NC(Cc1ccc(O)cc1)C(=O)N=Nc1c(O)[nH]c2ccccc12)c1ccccc1 (stereo not given)	-20.0
O=C(NCC1CCCCC1)NCC1CCCCC1	-21.6
O=[N+]([O-])c1ccc(COc2ccccc2CN2CCCCC2)cc1	2.5
CC[C@H](C)[C@H]1CNC(=S)N1CC1CCN(CC2CCC(C)CC2)CC1 (stereo not given in full)	-13.3
O=C(C1CC(=O)N(c2ccc3c(c2)OCCO3)C1)N1CCN(S(=O)(=O)c2cccc(F)c2)CC1 (stereo not given)	-7.1
CC(C)(C)OC(=O)N1CCCC(C(=O)Nc2cccc(C(=O)N3CCOCC3)c2)C1 (stereo not given)	-4.2
CN(Cc1ccccc1)C(=O)c1cccc(NC(=O)Cc2cccc(NC(=O)C3CCN(C(=O)c4ccccc4)CC3)c2)c1	14.8
COc1ccccc1-c1cccc([C@@H]2C[C@H]3[C@H](CON3C)CN2S(=O)(=O)c2ccccc2C)c1	16.9
CCOC(=O)C1=C(COC(=O)c2ccc(Cl)c(S(=O)(=O)N3CCOCC3)c2)NC(=O)NC1C (stereo not given)	5.4
CC(=O)OC(C=C(C)C)C/C(C)=C/COc1c2ccoc2cc2oc(=O)ccc12 (stereo not given)	14.0
Cn1cc(C(=O)C(=O)N2CCCCC2)c2ccccc21	-14.2
COc1ccccc1CNCCS(=O)(=O)NCc1ccccc1	-12.7
CCCSc1nc2c([nH]1)c(=O)n(C)c(=S)n2C	-5.7
O=C1C=CC(=O)c2c(O)c(N3CCN(CCO)CC3)c(Cl)c(O)c21	99.7*
COC(=O)c1ccc(NCc2cc(O)ccc2O)cc1	-3.0
O=C(CN(C1CCCCC1)S(=O)(=O)c1ccc(F)cc1)NCC1CCCO1 (stereo not given)	10.3
CC(=O)Nc1ccc(NC(=O)CSc2nc(=O)n(Cc3cccnc3)c3c2CCC3)cc1	8.1
O=[N+]([O-])c1ccc(CS(=O)Cc2ccccc2)cc1 (stereo not given)	-1.0
CCOC(=O)c1cc(-c2ccccc2)nc2c(O)cccc12	-2.5
O=[N+]([O-])c1cccc2[nH]ncc12	-2.6
C#CCOCCOCCOCCNc1nc(N2CCN(C(=O)Cn3cc(CCCCN)nn3)CC2)nc(N2CCN(C(=O)[C@H](Cc3ccc(O)cc3)n3cc(CCO)nn3)CC2)n1	-1.4
COC(=O)c1ccc(COc2ccccc2/C=N/Nc2cccc(C(=O)O)c2)cc1	1.8
